VDR inh: vitamin D3 receptor (human) inhibition. P11473. Potency, µM, for the others: max response, negative = inhibition, usual class: inhibitors. VDR-SRC2-3 peptide fluorescence polarization, 2 h. actives 0.93% (n = 400,000); active = well fitted inhibition curve with a large enough effect; inconclusive = small, poorly fitted or top-dose-only effect, or another doubt; inactive = no such curve, though single readings can be large or run the other way; note: series mostly up to about 120 µM
Target sequence (P11473 whole entry, looked up): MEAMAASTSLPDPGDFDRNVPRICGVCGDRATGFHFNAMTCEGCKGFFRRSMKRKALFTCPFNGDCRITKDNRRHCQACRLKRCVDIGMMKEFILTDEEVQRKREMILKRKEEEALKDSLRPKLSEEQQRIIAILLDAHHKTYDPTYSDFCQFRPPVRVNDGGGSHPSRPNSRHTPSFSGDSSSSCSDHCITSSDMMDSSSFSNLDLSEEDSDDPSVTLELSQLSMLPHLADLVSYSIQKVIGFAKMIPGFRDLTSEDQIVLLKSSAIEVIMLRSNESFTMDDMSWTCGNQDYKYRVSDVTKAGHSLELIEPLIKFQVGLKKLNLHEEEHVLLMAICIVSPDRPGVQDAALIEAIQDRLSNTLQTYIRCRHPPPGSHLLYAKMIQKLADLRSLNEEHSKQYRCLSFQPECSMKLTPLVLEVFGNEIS
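Fluorescence polarization assay measuring small-molecule disruption of VDR binding to the coregulator peptide SRC2-3. Compounds were pin-transferred (23 nl) into the reagent mix and incubated 2 h at room temperature before reading.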
The depositor's hits bear a star; ? = inconclusive; & = joins results of further samples; [ ] = another dose, or the depositor's remark. % is set by controls: 0 for no effect and ±100 for the full control effect; potency is the fitted concentration of half-maximal effect.

SMILES	VDR inh
COc1ccc(OC)c(NC(=O)c2nc(SCc3ccc(F)cc3)ncc2Cl)c1	6%
Cc1c(C(=O)OCC(=O)N(C)CC(=O)Nc2ccc(F)cc2)oc2ccccc12	-16%
Cc1cc(C)c2[nH]c(=S)cc(C)c2c1	-9%
CC(=O)Nc1ccc(NC(=O)C(C)OC(=O)CNS(=O)(=O)c2cccc(Cl)c2)cc1 (configuration not stated)	2%
COc1ccccc1N1CCN(/N=C/C=C/c2ccccc2[N+](=O)[O-])CC1	-19%
COC(=O)Cc1ccc(OCC(=O)NC2CCCC2)cc1	-15%
Cc1cc(O)c(NC(=O)c2ccc(Br)o2)cc1C	17%
C[C@H](NC(=O)c1nc[nH]c1C(=O)NCC(=O)OC(C)(C)C)C(=O)OCc1ccccc1	-21%
CCOc1ccc(Oc2c(C)oc3cc(O)ccc3c2=O)cc1	-8%
COC(=O)C1=C(C)N(C)C(=O)/C1=C\c1cccs1	11%
CC(C)(SC(=S)N1CCOCC1)C(=O)O	9%
COc1ccccc1N1CCN(S(=O)(=O)c2cc(C(F)(F)F)cc(C(F)(F)F)c2)CC1	-11%
CC(=C/c1ccccc1)/C=N/N1CCN(Cc2ccc(C)cc2)CC1	-6%
CC(=O)c1nn(-c2cccc(Br)c2)cc1C(=O)c1ccccc1	-1%
C=C(C)C(=O)N1CC2(CC(c3cccc(NC(=O)c4ccccc4)c3)=NO2)C[C@@H]1C(N)=O (some centres not stated)	7%
COC(=O)Nc1ccc(S(=O)(=O)N(CCO)CC(F)(F)C(F)F)cc1	9%

As entered above.
CC(=C/c1ccccc1)/C=N/N1CCN(Cc2ccc(C)cc2)CC1 | VDR inh = -6%
COC(=O)Nc1ccc(S(=O)(=O)N(CCO)CC(F)(F)C(F)F)cc1 | VDR inh = 9%
C=C(C)C(=O)N1CC2(CC(c3cccc(NC(=O)c4ccccc4)c3)=NO2)C[C@@H]1C(N)=O (some centres not stated) | VDR inh = 7%
COc1ccccc1N1CCN(S(=O)(=O)c2cc(C(F)(F)F)cc(C(F)(F)F)c2)CC1 | VDR inh = -11%
CC(C)(SC(=S)N1CCOCC1)C(=O)O | VDR inh = 9%
CC(=O)c1nn(-c2cccc(Br)c2)cc1C(=O)c1ccccc1 | VDR inh = -1%

More results.
SMILES	VDR inh
Cc1oc(-c2cccc(Cl)c2)nc1CS(=O)(=O)CC(=O)NC1CC1	-2%
O=C(NNc1ccc([N+](=O)[O-])cc1)C1CC2CCCC(C1)C2=O (configuration not stated)	-3%
CC(=O)c1cc(-c2ccccc2)n(CC(=O)NC2CCCC2)c1C	8%
O=C(COC(=O)CSc1cc(Cl)ccc1Cl)NCc1ccc2c(c1)OCO2	-18%
COc1cccc(N=C2SC(C(=O)Nc3ccc(F)cc3)CC(=O)N2C)c1 (configuration not stated)	-5%
CN1CCN(CCP(=O)(c2ccccc2)c2ccccc2)CC1	-3%
CSc1nsc2nc(=O)c(/C=C3\C(C)=Nc4ccccc43)c(N)n12	3%
COC(=O)CSc1cc(C)nc2ccc(OC)cc12	-14%
Cc1cccc(OCC(=O)NNC(=O)CSc2ncc(C#N)c(N)n2)c1	-21%
CCOc1ccc(-n2c(-c3ccc(Br)cc3)c[n+]3c2CCCCC3)cc1	5%
COc1cc(OC)cc(C(=O)Nc2ccc3nc(N4CCC(C)CC4)cc(C)c3c2)c1	-15%
CSc1ccc(/C=N/n2c(C)cc(C)cc2=O)cc1	0%
C=CCN1C(=O)CS/C1=N/c1nccs1	-2%
COCCCNC(=O)c1c(NC(=O)Cc2coc3cc(C)cc(C)c23)sc2c1CCCC2	9%
Fc1ccc(-c2nc3nc4ccccc4nc3n2Cc2ccco2)cc1	-6%
CC1(C)CC(=O)C(N=Nc2cccnc2)=C(O)C1	-21%

Sorted by the number under VDR inh (ascending): 3 from the list above.
Compound | VDR inh
CC1(C)CC(=O)C(N=Nc2cccnc2)=C(O)C1 | -21%
C=CCN1C(=O)CS/C1=N/c1nccs1 | -2%
COCCCNC(=O)c1c(NC(=O)Cc2coc3cc(C)cc(C)c23)sc2c1CCCC2 | 9%

(further entries)
SMILES	VDR inh
Cc1ccc(S(=O)(=O)N(CC(=O)NCCSc2ccccn2)c2ccccc2F)cc1	6%
CC(=O)c1cc2c(cc1NC(=O)CSc1nnc(C)s1)OCO2	7%
Cc1ccc(NC(=O)C(=O)c2cn(CC(=O)N3CCCCC3)c3ccccc23)cc1	-14%
CCOC(=O)N1CCN(CCC(=O)Nc2ccc(OC(F)(F)F)cc2)CC1	1%
Cc1cc(N2CCCC2=O)ccc1S(=O)(=O)N1CCOCC1	8%
CCc1nc2ccccc2c(C(=O)OCC(=O)Nc2cccc(S(=O)(=O)N3CCOCC3)c2)c1C	8%
O=C(c1ccncc1)N1CCC[C@@]2(CCN(Cc3ccncc3)C2)C1	1%
CS[C@@H]1SC[C@H]2C(=O)N(C)C(C(C)C)C(=O)OC[C@@H](NC(=O)c3cnc4ccccc4n3)C(=O)N[C@@H](C)C(=O)N(C)[C@H]1C(=O)N(C)C(C(C)C)C(=O)OC[C@@H](NC(=O)c1cnc3ccccc3n1)C(=O)N[C@@H](C)C(=O)N2C (some centres not stated)	17%

Grouped by structure: the entries above with a furan ring, fused or not.
SMILES	VDR inh
Cc1c(C(=O)OCC(=O)N(C)CC(=O)Nc2ccc(F)cc2)oc2ccccc12	-16%
Cc1cc(O)c(NC(=O)c2ccc(Br)o2)cc1C	17%
COCCCNC(=O)c1c(NC(=O)Cc2coc3cc(C)cc(C)c23)sc2c1CCCC2	9%
Fc1ccc(-c2nc3nc4ccccc4nc3n2Cc2ccco2)cc1	-6%

Other records
SMILES	VDR inh
Cc1ccc2nc(CN3CCN(C(=O)Nc4ccc(C)c(F)c4)CC3)oc2c1	10%
Cc1ccc(S(=O)(=O)N2CCOC2CNC(=O)C(=O)NCCN(C)C)cc1 (configuration not stated)	6%
Cn1c(=O)cc(OCCCC(=O)N2CCCCC2)c2ccccc21	16%
O=C(NCCN=C1NS(=O)(=O)c2ccccc21)c1ccccc1	13%
C/C=C(\C)CN1CCCC(CO)(Cc2ccccc2)C1 (configuration not stated)	-7%
O=S1(=O)N=C(N(CCO)/N=C/c2ccc(Cl)cc2)c2ccccc21	-8%
Cc1ccccc1-c1noc(-c2cc(C(C)C)[nH]n2)n1	16%
CC1CCC2=NN(C(=O)c3ccco3)C(O)(C(F)(F)F)C2C1 (configuration not stated)	5%

Quoted at random: 3 records from the list, in no set order.
SMILES	VDR inh
Cn1c(=O)cc(OCCCC(=O)N2CCCCC2)c2ccccc21	16%
CC1CCC2=NN(C(=O)c3ccco3)C(O)(C(F)(F)F)C2C1 (configuration not stated)	5%
Cc1ccc(S(=O)(=O)N2CCOC2CNC(=O)C(=O)NCCN(C)C)cc1 (configuration not stated)	6%

Going on with the list:
SMILES	VDR inh
O=C(c1ccc(S(=O)(=O)c2cccc(Cl)c2)c([N+](=O)[O-])c1)N1CCN(Cc2ccccc2)CC1	-3%
Cc1ccc2nsnc2c1NC(=O)Cc1ccc(Cl)cc1	0%
O=C(CNC(=O)Cc1ccccc1)NCC(=O)OCC(=O)c1ccc(Cl)cc1	-4%
Cc1ccccc1Nc1nnc(C)c(=O)n1N	-6%
CCCCC[C@H](O)/C=C/[C@H]1[C@H](O)CC(=O)[C@@H]1CCCCCCC(=O)O	3%&-14%
Cc1ccc(S(=O)(=O)NCc2ccccc2)cc1C(=O)N(C)Cc1ccccc1F	8%
Cc1ccc2c(cnn2C(=O)CCCC(=O)NCc2cccc(F)c2)c1	-10%
COc1ccc(-c2csc(NC(=O)C3CSC4(C)CCC(=O)N34)n2)c(OC)c1 (configuration not stated)	-3%
COc1ccc(C2CC(c3ccccc3)=NN2C(=O)c2cccs2)cc1 (configuration not stated)	17%
c1ccc2c(CCNc3ncnc4nc[nH]c34)cccc2c1	9%
Cc1ccc(NC(=O)CN(C)C(=O)Cc2c(Cl)cccc2Cl)cc1	-6%
COc1ccc(NS(=O)(=O)c2cc(N)ccc2N2CCCC2)cc1	-23%
COC(=O)c1ccc2ccccc2c1OC1OC(CO)C(O)C(O)C1NC(C)=O (configuration not stated)	2%
COc1ccc(CCNC(=O)COC(=O)COc2ccc(C#N)cc2)cc1	1%
CCC(NC(=O)Cc1c(C)c2ccc(OC)c(C)c2oc1=O)C(=O)NC(Cc1ccc(Cl)cc1)C(=O)O (configuration not stated)	0%
COc1cc(CNCCCO)ccc1OCC(=O)NC(C)(C)C	-9%
O=C(c1csc2ccccc12)N1CCN(c2ccc(Cl)c(Cl)c2)CC1	-8%
CCc1ccccc1NC(=O)CCOc1ccccc1	-8%&-9%
Cc1ccccc1OCC(=O)NCC(=O)OCC(=O)c1ccc(-c2ccccc2)cc1	-19%
Nc1c(C(=O)N/N=C/c2ccc(Cl)cc2)cnn1-c1ccccc1	-9%
COc1ccccc1OCC(=O)N1CCN(S(=O)(=O)c2ccc(Cl)cc2)CC1	-16%
COc1ccc(-c2nnc3sc(-c4ccco4)nn23)cc1OC	-10%
CC(C)CC1Nc2ncnc(N3CCN(c4ccccn4)CC3)c2N(Cc2ccccc2)C1=O (configuration not stated)	2%
O=C(c1ccccc1S(=O)(=O)NCc1ccccc1)N1CCCCC1	-6%
Cc1ccc(NC(=O)Cn2c(=O)oc3cc(S(=O)(=O)N4CCCCCC4)ccc32)cc1Cl	1%
CSCCC(NS(=O)(=O)c1ccc(Cl)cc1)C(=O)OCC(=O)N1CCOCC1 (configuration not stated)	12%
Cc1nc(C)n(CC(C)C(=O)N2CCN(S(=O)(=O)c3ccccc3)CC2)n1 (configuration not stated)	10%
CCNC(=O)C1CCN(S(=O)(=O)c2ccc(F)cc2)CC1	?
CCc1ccc(-c2cn(C3CCCCC3)c(=S)[nH]2)cc1	-4%
CCCCN(C)C(=O)c1ccc(CS(=O)(=O)c2ccccc2C)o1	4%
CSc1nc2ccccc2cc1/C=C(\C#N)c1cccc(Cl)c1	0%
CC(=O)N1CCCc2ccc(NC(=O)c3ccc(OC(C)C)cc3)cc21	11%
Cc1cc(C(=O)N/N=C/c2cc(Br)ccc2OC(=O)c2ccccc2)n[nH]1	32%[activator]

Source: PubChem BioAssay (National Center for Advancing Translational Sciences (NCATS))

Some of the compounds tested; the hit share may differ from the screen's.
